From PubChem BioAssay
MLL AF4-AF9 inh – inhibitors of AF4 peptide binding to AF9, primary screen, biochemical, AlphaScreen, biotin-AF4 peptide, FLAG-AF9, single point; 350,000 tested, 0.47% active; Protein AF-9 (Homo sapiens), P42568; inhibition, % at 10 µM; AID 651704, 2012;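 active = every replicate reaching a set inhibition limit, whatever the replicate mean, cut at about 25% in these data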;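 note: 0% = plate neutral control median and 100% = total signal loss; the record names both 10 and 1 µM as test concentration; the first replicate is given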
Target sequence (P42568 whole entry, looked up): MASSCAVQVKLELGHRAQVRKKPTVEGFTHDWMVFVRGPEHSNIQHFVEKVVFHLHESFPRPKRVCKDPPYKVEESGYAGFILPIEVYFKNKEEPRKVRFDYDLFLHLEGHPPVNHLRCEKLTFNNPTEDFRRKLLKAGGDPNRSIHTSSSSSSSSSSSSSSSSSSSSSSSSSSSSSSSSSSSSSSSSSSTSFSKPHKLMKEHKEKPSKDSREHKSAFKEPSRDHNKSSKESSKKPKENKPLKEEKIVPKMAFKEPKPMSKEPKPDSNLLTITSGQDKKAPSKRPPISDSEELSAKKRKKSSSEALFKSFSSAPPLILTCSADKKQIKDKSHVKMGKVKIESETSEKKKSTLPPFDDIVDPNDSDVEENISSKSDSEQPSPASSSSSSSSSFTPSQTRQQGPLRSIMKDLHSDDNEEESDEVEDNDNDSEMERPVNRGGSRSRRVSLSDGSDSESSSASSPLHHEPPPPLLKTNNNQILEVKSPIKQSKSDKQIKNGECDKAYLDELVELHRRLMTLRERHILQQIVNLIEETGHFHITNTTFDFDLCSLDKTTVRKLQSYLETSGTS
rRNA inh HTS – reduced GFP signal of wild-type E. coli, primary screen, bacterial rRNA inhibitor project, GFP/RFP fluorescence, OD600, single point. AID 720706, 2013. 350,000 tested, 1.6% active. GFP signal change (wild-type ribosome), % (concentration not given with the values). E. coli WT GFP vs humanized-ribosome RFP mutants, 24 h; active compounds read low; DMSO median 0, no signal -100;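 active = significant combined selectivity score with lowered wild-type GFP, culture density cut under 30%, mutant RFP and density less affected; inactive = any of these conditions unmet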; note: one replicate is shown; some compounds called inactive have numbers as strong as hits
rRNA inh HTS OD600 – also measured in rRNA inh HTS; calls as there; OD600 change, %; measured here: OD600 growth;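 optical density of the mix in the first replicate; 0 = DMSO median and -100 = no signal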
rRNA inh HTS RFP – second read-out of rRNA inh HTS, no call of its own (marks repeat the call); RFP signal change, %; measured here: RFP humanized mutant strains;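 first replicate; 0 = DMSO median and -100 = no signal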
* marks the source's active call; other numbers are inactive results; & = joins results of further samples. An excerpt; the hit share may differ from the screen's.

Results follow in this order: MLL AF4-AF9 inh | rRNA inh HTS | rRNA inh HTS OD600 | rRNA inh HTS RFP
C[C@H](CO)N1C[C@H](C)[C@H](CN(C)C(=O)Nc2ccccc2)Oc2ccc(NC(=O)Nc3ccc(F)cc3)cc2C1=O
→ 0.6 | -7.3 | -13.6 | -2.7
C[C@@H]1CN([C@H](C)CO)C(=O)c2cc(NC(=O)c3ccccc3)ccc2O[C@@H](C)CCCCO[C@@H]1CN(C)Cc1ccc(C(F)(F)F)cc1
→ 0.2 | 0.0 | 1.6 | 4.9
C[C@H](CO)N1C[C@H](C)[C@H](CN(C)Cc2ccncc2)Oc2ncc(C#CC3CCCC3)cc2C1=O
→ 3.7 | -0.3 | 5.9 | 0.7
CC1(C(=O)NC2CCN(Cc3ccccc3)CC2)CCN1Cc1ccc(OC(F)(F)F)cc1 (configuration not stated)
→ 1.6 | -0.1 | -14.0 | -0.6
O=C(Nc1ccc(C(=O)N2CCCCC2)cc1)c1ccccc1
→ -2.2 | -4.6 | 4.1 | -4.1
CO[C@H]1CN(C)C(=O)c2cc(NC(=O)C3CCCCC3)ccc2OC[C@@H](C)N(Cc2cccnc2)C[C@H]1C
→ 0.7 | -1.1 | 4.1 | 0.6
C[C@@H]1CCCCO[C@@H](CN(C)C(=O)c2ccccc2)[C@@H](C)CN([C@H](C)CO)C(=O)c2cc(NC(=O)NC3CCCCC3)ccc2O1
→ -2.2 | 2.0 | 3.1 | -2.0
C/C=C/c1ccc([C@H]2[C@H](CO)N(C(C)=O)C23CN(S(C)(=O)=O)C3)cc1
→ 4.9 | 3.2 | -9.2 | 0.0
C[C@H]1CN([C@@H](C)CO)S(=O)(=O)c2ccc(Br)cc2O[C@@H]1CN(C)Cc1ccncc1
→ -0.9 | -12.6 | -12.8 | -2.7
Cn1c(=O)cc(OCCCC(=O)Nc2cccc(Cl)c2)c2ccccc21
→ -2.1 | 16.7 | 24.4 | 0.4
C[C@H]1CN([C@@H](C)CO)C(=O)c2cc(C3=CCCC3)cnc2O[C@H]1CN(C)C(=O)c1ccc2c(c1)OCO2
→ -3.2 | 4.5 | 14.6 | -1.1
Cc1noc(C)c1NC(=O)N(C)C[C@@H]1OCCCC[C@@H](C)Oc2ccc(NS(=O)(=O)c3ccccc3)cc2C(=O)N([C@H](C)CO)C[C@H]1C
→ -3.4 | -1.8 | 2.7 | 1.3
C[C@H](CO)N1C[C@H](C)[C@H](CN(C)S(=O)(=O)c2cn(C)cn2)OCc2cnnn2CCCC1=O
→ -0.6&1.8 | 3.0&2.3 | 15.1&-0.6 | 4.3&-1.3
CCC(=O)N1CC(=O)N2[C@H](C1)[C@@H](c1ccc(C#Cc3cccnc3)cc1)[C@@H]2CO
→ -16.6 | 3.1 | -2.8 | -1.4
COCC(=O)N1[C@H](C#N)[C@@H](c2ccccc2-c2cccc(C)c2)[C@@H]1CO
→ -0.5 | 3.9 | 8.1 | 2.8
CNC[C@H]1Oc2cc(C#CCC3CCCC3)ccc2S(=O)(=O)N([C@@H](C)CO)C[C@@H]1C
→ 8.3 | 0.4 | -6.1 | 4.8
O=C(Nc1ccccc1F)N1CCCCN2[C@H](CO)[C@H](c3ccc(C4=CCCC4)cc3)[C@H]2C1
→ 1.9 | 3.7 | -32.8 | -2.3
CC(C)NC(=O)N(C)C[C@H]1Oc2ccc(NC(=O)Nc3ccc4c(c3)OCO4)cc2C(=O)N([C@H](C)CO)C[C@H]1C
→ -2.5 | -1.0 | 5.2 | 0.1
CC1=C(C(=O)N(C(C)C)C(C)C)CC(CC(=O)NCc2cccc3ccccc23)C(=O)N1CCC1=CCCCC1 (configuration not stated)
→ 0.6 | 0.0 | 1.4 | 0.0
C[C@@H]1CN([C@@H](C)CO)C(=O)c2cc(NS(=O)(=O)c3ccccc3)ccc2O[C@@H](C)CCCCO[C@@H]1CN(C)Cc1ccncc1
→ -10.5 | -1.0 | -7.2 | -3.4
CC1ON=C(c2ccccn2)N(Cc2ccc(S(C)(=O)=O)cc2)C1=O (configuration not stated)
→ 0.6 | 13.1 | 14.0 | 3.1
Cc1noc(C)c1S(=O)(=O)N(C)C[C@@H]1OCCCC[C@@H](C)Oc2ccc(NS(=O)(=O)c3ccc(Cl)cc3)cc2C(=O)N([C@H](C)CO)C[C@H]1C
→ 3.6 | -0.2 | -2.8 | 0.2
COc1cccc(-c2ccc3c(c2)O[C@H](CN(C)C(=O)c2ccccc2F)[C@@H](C)CN([C@@H](C)CO)S3(=O)=O)c1
→ 2.8 | -13.9 | -22.8 | 3.7
CCC(=O)Nc1ccc2c(c1)OC[C@@H](C)N(Cc1ccccc1F)C[C@H](C)[C@@H](OC)CN(C)C2=O
→ 4.2 | -5.9 | -8.5 | 2.3
C[C@H]1CN([C@@H](C)CO)C(=O)Cc2cc(NC(=O)CCCCCC(=O)Nc3ccccc3N)ccc2O[C@@H]1CN(C)C(=O)Nc1ccccc1
→ -2.3 | 1.1 | 6.1 | -2.4
COc1ccc(C(C(=O)NC2CCCC2)n2c(CSCCOc3ccccc3)nc3ccccc32)cc1 (configuration not stated)
→ -3.3 | 4.9 | 14.2 | 5.9
O=C(CCN1CCCCC1)N[C@H]1CC[C@@H](CCNS(=O)(=O)c2ccc(F)cc2)O[C@H]1CO
→ 1.9 | 5.7 | 5.6 | -2.0
C[C@H](CO)N1C[C@H](C)[C@@H](CN(C)C(=O)C2CCCCC2)Oc2cc(C3=CCCCC3)ccc2S1(=O)=O
→ 7.4 | -9.4 | -11.7 | 2.5
CCOC(=O)c1cc2ccccc2n1C1CCN(C)CC1
→ 3.3 | -3.1 | -3.7 | -1.8
COc1ccc(S(=O)(=O)Nc2ccc3c(c2)C(=O)N([C@@H](C)CO)C[C@@H](C)[C@H](CN(C)Cc2ccc(C(F)(F)F)cc2)OCCCC[C@@H](C)O3)cc1
→ 2.5 | 1.8 | -2.7 | 3.1
CCCC(=O)Nc1ccc2c(c1)C(=O)N(C)[C@H]1CC[C@H](CC(=O)NCCc3ccccc3)O[C@H]1CO2
→ -0.8 | -2.1 | 0.7 | -3.3
COC(=O)[C@H]1[C@H](CO)[C@H]2Cn3c(ccc(C4=CCCC4)c3=O)[C@H]2N1CC1CCOCC1
→ -2.4 | 3.7 | 2.3 | 2.5
CO[C@H]1CN(C)C(=O)c2cc(NC(=O)C3CCCCC3)ccc2OC[C@@H](C)N(C)C[C@H]1C
→ -2.0 | 0.9 | 9.3 | -1.6
C[C@H]1CN([C@@H](C)CO)C(=O)Cc2cc(NC(=O)CCC(F)(F)F)ccc2O[C@@H]1CN(C)Cc1ccc(C(=O)O)cc1
→ -3.6 | 2.3 | 6.1 | -2.1
CC(C)CNc1cccc2c1S(=O)(=O)N[C@H](C)CO2
→ -0.4 | -6.1 | -2.1 | 2.4
CCC(=O)Nc1ccc2c(c1)C(=O)N(C)C[C@H](OC)[C@@H](C)CN(C(=O)CC1CC1)[C@@H](C)CO2
→ -0.3 | 0.5 | -2.5 | -0.8
CCS(=O)(=O)Nc1ccc2c(c1)C(=O)N(C)C[C@@H](OC)[C@H](C)CN(C(=O)NC(C)C)[C@H](C)CO2
→ -2.2 | 1.1 | 2.5 | 1.2
Cc1ccc(S(=O)(=O)Nc2ccc3c(c2)C(=O)N([C@H](C)CO)C[C@H](C)[C@H](CN(C)C(=O)c2ccccc2)OCCCC[C@@H](C)O3)cc1
→ -2.4 | 1.2 | -0.3 | -1.7
C[C@@H]1CN([C@@H](C)CO)S(=O)(=O)c2ccc(C#Cc3ccncc3)cc2O[C@H]1CN(C)C(=O)C1CC1
→ -0.4 | 4.3 | -6.0 | -3.3
COc1cccc(CN2CC3(CCN(C(C)=O)CC3)c3c(n(C)c4cc(OC)ccc34)[C@H]2CO)c1
→ -0.3 | 2.4 | 0.9 | 0.6
CO[C@H]1CN(C)C(=O)c2cc(NS(C)(=O)=O)ccc2OC[C@H](C)N(C(=O)c2ccc3c(c2)OCO3)C[C@H]1C
→ 0.0 | 1.8 | -1.2 | -1.2
COc1ccccc1C(=O)N1[C@@H](C(C)C)COc2cc(Br)ccc2S1(=O)=O
→ -1.1 | -0.8 | 4.0 | -5.9
C[C@@H]1CN([C@@H](C)CO)C(=O)Cc2cc(NC(=O)C3CCCCC3)ccc2O[C@@H]1CN(C)S(=O)(=O)c1cn(C)cn1
→ -3.3 | 2.8 | 0.4 | -1.0
CNC(=O)C[C@@H]1CC[C@@H]2[C@H](COc3ccc(NC(=O)Nc4cc(C)cc(C)c4)cc3C(=O)N2C)O1
→ 3.9 | 1.1 | -7.1 | -1.2
C[C@H]1CN([C@@H](C)CO)C(=O)c2cc(C#Cc3cccc(F)c3)cnc2O[C@@H]1CN(C)C(=O)c1ccccc1F
→ -0.9 | -1.8 | -47.2 | 33.5
CC(C)NC(=O)N(C)C[C@H]1Oc2ncc(-c3cccc(C#N)c3)cc2C(=O)N([C@@H](C)CO)C[C@@H]1C
→ -4.8 | 3.9 | -2.5 | -1.6
C[C@H](CO)N1C[C@H](C)[C@H](CN(C)C)Oc2cc(C3=CCCC3)ccc2S1(=O)=O
→ -3.0 | 2.2 | 0.3 | -1.3
C[C@@H]1CCCCO[C@@H](CN(C)C(=O)c2ccccc2)[C@@H](C)CN([C@@H](C)CO)C(=O)c2cc(NS(=O)(=O)c3ccc(Cl)cc3)ccc2O1
→ -1.6 | 2.1 | -5.7 | 0.2
Cc1ccc(S(=O)(=O)N(C)C[C@H]2Oc3c(NC(=O)Nc4cccc5ccccc45)cccc3C(=O)N([C@H](C)CO)C[C@@H]2C)cc1
→ 2.4 | -0.4 | -1.7 | 0.5
COc1ccc(CN(C)C[C@H]2OCCCC[C@H](C)Oc3ccc(NS(=O)(=O)c4ccc(F)cc4)cc3C(=O)N([C@H](C)CO)C[C@@H]2C)cc1
→ 2.3 | -3.0 | -6.1 | -0.5
C[C@@H]1CN([C@@H](C)CO)C(=O)c2cc(-c3cccnc3)cnc2O[C@@H]1CN(C)C(=O)c1cccc(F)c1
→ -7.9 | 6.9 | 12.2 | -0.1
COc1ccc(NC(=O)Nc2ccc3c(c2)C(=O)N([C@H](C)CO)C[C@@H](C)[C@@H](CN(C)Cc2ccc(C(F)(F)F)cc2)O3)cc1
→ 5.2 | -1.8 | -11.2 | 6.1
CC=Cc1ccc2n(c1=O)C[C@H]1[C@H](CO)[C@@H](C(=O)NCCC)[C@@H]2N1C(=O)Nc1cc(F)ccc1F (mixture of isomers)
→ 0.5 | -0.7 | 2.3 | 1.4
O=C(NC1CCCC1)N1CCCCN2[C@@H](CO)[C@@H](c3ccc(-c4cccnc4)cc3)[C@@H]2C1
→ -2.2 | 4.8 | 3.6 | -6.7
C[C@@H]1CN([C@H](C)CO)S(=O)(=O)c2ccc(C#CCC3CCCC3)cc2O[C@@H]1CN(C)C(=O)CC1CC1
→ -0.3 | -3.1 | -8.2 | 2.1
O=C1COc2ccccc2C(c2nc3ccccc3[nH]2)N1Cc1ccccc1 (configuration not stated)
→ -2.9 | -2.7 | -5.4 | 4.4
CC(C)(O)C#Cc1ccc([C@H]2[C@H]3CN(C(=O)c4ccc(F)cc4)CCCCN3[C@H]2CO)cc1
→ 0.4 | 0.7 | 1.6 | -4.3
OC[C@H]1[C@@H](c2ccc(-c3cccnc3)cc2)[C@H]2CN(CC3CC3)CCCCN21
→ 0.4 | 4.3 | 17.2 | 6.6
Cc1cc(Cl)ccc1-c1nc(NCCN(C)C)nc2ccsc12
→ 1.5 | -28.8 | -54.6 | -4.5
COc1ccc(-c2ccc([C@@H]3[C@@H](C#N)N(C(=O)C4CCOCC4)[C@H]3CO)cc2)cc1
→ -2.8 | 2.5 | 9.6 | -2.2
Cc1noc(C)c1NC(=O)Nc1ccc2c(c1)C(=O)N([C@@H](C)CO)C[C@H](C)[C@H](CN(C)S(=O)(=O)c1cccs1)OCCCC[C@H](C)O2
→ 1.0 | 1.1 | -5.8 | -1.0
CC(C)NC(=O)N[C@H]1CC[C@H](CC(=O)NCCN2CCCC2)O[C@H]1CO
→ -0.5 | -0.9 | 7.3 | -1.8
